# Compound activity (PubChem)
# PPC-1+TRAIL kill = compounds killing PPC-1 cancer cells with TRAIL present (potentiator screen, no TRAIL-free arm); 220,000 compounds, 0.41% hits; cell killing (% activity), % at 4 µM; PPC-1 cells + TRAIL, ATPLite viability luminescence;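 active = cell killing above 50% in the first pass at 4 µM, then a duplicate retest at 5 µM averaging 50% or more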;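 note: plate controls were cells with TRAIL plus DMSO for no effect and medium-only wells lacking cells for full effect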
# zVAD death inh = L929 zVAD cell death inhibition; L929 zVAD necroptosis rescue, ATP luminescence, 24 h; with zVAD 60 µM; viability rescue, % at 10 µM; 220,000 compounds, 0.38% hits; AID 1377;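 active = activation, scaled between plate controls, above about 75%, limit read from the data; inactive = activation under that limit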;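 note: 0% = zVAD with DMSO and 100% = DMSO alone without zVAD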
# TbHK1 inh = T. brucei hexokinase 1 inhibition; recombinant TbHK1, G6PDH-coupled NADH A340; inhibition, % at 10 µM; 220,000 compounds, 0.11% hits; AID 1430;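 active = inhibition of 50% or more in the single-dose primary screen; inactive = inhibition below 50%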
# EP2 antag = EP2 receptor (human) inhibition; P43116; C6 glioma cells expressing human EP2, cAMP TR-FRET; cells stimulated with saturating PGE2; inhibition, % at 25 µM; 260,000 compounds, 0.52% hits;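 active = percent inhibition above 40 after rounding to a whole number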;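 note: rat C6 glioma host cells with rolipram phosphodiesterase inhibitor present; the protocol text gives 20 µM as final concentration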
# Target sequence (P43116 whole entry, looked up): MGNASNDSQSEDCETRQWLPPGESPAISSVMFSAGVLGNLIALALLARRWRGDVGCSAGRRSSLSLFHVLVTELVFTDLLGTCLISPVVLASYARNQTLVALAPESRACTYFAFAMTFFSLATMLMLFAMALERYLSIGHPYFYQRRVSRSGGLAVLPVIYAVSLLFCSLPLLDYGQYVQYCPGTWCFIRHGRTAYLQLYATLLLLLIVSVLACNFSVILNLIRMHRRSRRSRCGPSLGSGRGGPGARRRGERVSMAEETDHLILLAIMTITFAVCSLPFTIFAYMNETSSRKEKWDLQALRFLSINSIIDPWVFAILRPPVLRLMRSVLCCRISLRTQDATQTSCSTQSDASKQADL
# TNF necrop inh = blocks TNF-alpha induced death of Jurkat FADD-/- cells; Jurkat FADD-/- TNF necroptosis rescue, ATP luminescence, 24 h; 0 = TNF only, 100 = no-TNF cells; 220,000 compounds, 0.068% hits; AID 463075; activation (protection from cell death), % at 10 µM;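 active = activation, meaning protection from cell death, of at least 50% relative to plate controls; inactive = activation below 50%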;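 note: necroptosis triggered by 40 ng/mL TNF-alpha added together with compound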
# Wee1 stabilizer = inhibitors of human Wee1 degradation; P30291; HeLa Luc-Wee1K328M stability, luciferase luminescence; 100% = proteasome inhibitor MG132 effect; reporter increase, % at 5 µM; 220,000 compounds, 1.2% hits; AID 1321;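 active = activation above the mean of all tested compounds plus 3 SD, set per screening run, cut at about 8.8% in these data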;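 note: cells exposed to compound for 20 h before luminescence read; 0% = DMSO alone and 100% = MG132 at 30 µM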
# Target sequence (P30291 whole entry K328M): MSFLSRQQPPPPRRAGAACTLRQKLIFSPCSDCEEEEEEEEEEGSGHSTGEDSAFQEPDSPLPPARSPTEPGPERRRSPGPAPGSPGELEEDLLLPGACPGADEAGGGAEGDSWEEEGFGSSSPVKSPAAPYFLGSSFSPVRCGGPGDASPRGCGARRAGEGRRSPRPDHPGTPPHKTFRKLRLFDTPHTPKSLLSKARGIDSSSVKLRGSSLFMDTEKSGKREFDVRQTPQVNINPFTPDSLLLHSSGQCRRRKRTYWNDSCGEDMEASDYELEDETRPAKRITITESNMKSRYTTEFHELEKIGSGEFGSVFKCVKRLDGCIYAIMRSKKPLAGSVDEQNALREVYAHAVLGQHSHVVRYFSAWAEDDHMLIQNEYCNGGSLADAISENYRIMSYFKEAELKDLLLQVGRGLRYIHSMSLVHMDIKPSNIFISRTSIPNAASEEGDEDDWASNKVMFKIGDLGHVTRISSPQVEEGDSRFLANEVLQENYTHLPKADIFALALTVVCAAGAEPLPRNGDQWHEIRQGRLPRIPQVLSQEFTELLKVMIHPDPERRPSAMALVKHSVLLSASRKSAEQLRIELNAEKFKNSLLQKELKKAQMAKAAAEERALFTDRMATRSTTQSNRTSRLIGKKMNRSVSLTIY
# CHOP inh = CHOP inhibition in unfolded protein response; CHO-K1 CHOP-promoter luciferase, tunicamycin-induced, 15-18 h; inhibition, % at 10 µM; 220,000 compounds, 3.8% hits;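 active = compounds that reduced the stress-induced luciferase reporter signal by more than about 70% of percent inhibition, limit read from the data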;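 note: 0% = tunicamycin plus vehicle and 100% = wells without tunicamycin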
# * = called active by the depositor; / = not tested or not shown; & = joins results of further samples.
SMILES,PPC-1+TRAIL kill,zVAD death inh,TbHK1 inh,EP2 antag,TNF necrop inh,Wee1 stabilizer,CHOP inh
CCOc1ccc(NC(=O)c2ccco2)cc1,48,-1.1,-3,6,-3.8,0,23
Cc1ccc(C(=O)COC(=O)CNS(=O)(=O)c2ccccc2)cc1[N+](=O)[O-],19,-0.1,1,12,-2.0,-1,-8
COC(=O)c1cccc(CN2C(=O)SC(Nc3ccc(C)cc3)C2=O)c1 (configuration not stated),9,1.4,3,15,0.1,-1,11
O=C(N/N=C/c1ccccc1[N+](=O)[O-])c1ccc2nc[nH]c2c1,8,0.5,-13,7,-2.1,1,-8
CC(=O)C1=C(C)Nc2ncnn2C1c1cccc(OCc2ccccc2)c1 (configuration not stated),-4,-0.8,-10,10,-0.5,3,8
CCn1c(CNC(=O)Cc2ccc(OC)cc2)nnc1SCC(=O)c1ccccc1,13,1.5,1,13,-2.5,5,-1
COc1ccc(N/C(N)=N/c2nc(CSc3nnc(C)s3)cc(=O)[nH]2)cc1,10,0.0,-5,4,-3.3,6,-3
CS(=O)(=O)N1CCN(c2ccccc2NC(=S)NC(=O)c2ccccc2[N+](=O)[O-])CC1,22,-0.3,2,10,-0.7,0,-4
COc1ccc(S(=O)(=O)n2nc(OC(=O)c3c(-c4ccccc4Cl)noc3C)cc2N)cc1,47,0.1,-2,7,-3.0,-2,-4
Cc1cccc(NC(=O)CCc2ccc(S(=O)(=O)NC3CCCCC3)cc2)c1,9,0.0,-2,8,-1.4,0,72*
O=C(NCc1ccccc1)c1nc2ccccc2s1,-9,1.5,0,4,0.4,4,15
Cn1nccc1C(=O)Nc1ccccc1C(=O)O,19,1.6,1,8,0.1,0,-4
CCOC(=O)CSc1n[nH]c(NC(=O)c2ccc(F)cc2)n1,26,-0.4,-5,5,-1.5,-2,18
COC(=O)c1scc(S(C)(=O)=O)c1-n1cccc1,10,0.5,-3,8,2.1,-1,14
O=S(=O)(Nc1ccc2c(c1)nc1n2CCOC1)c1ccc(Cl)cc1,13,1.4,0,16,-3.6,-1,10
COC(=O)c1nc(NC(=O)c2ccccc2)n[nH]1,4,0.1,-10,3,-4.2,3,18
COc1ccccc1/C=C/C=N/n1c(COc2ccccc2)n[nH]c1=S,-1,0.5,0,6,-3.9,0,62
Cc1cc(C(F)(F)F)n2nc(-c3cccs3)cc2n1,-20,0.2,-12,12,3.6,3,-10
CCCc1ccc(OCc2ccc(C(=O)Nc3cccc(C)n3)o2)c(OC)c1,17,-0.2,7,10,0.2,-4,-18
CCNC(=S)Nc1cc(-c2ccc(Cl)cc2)[nH]n1,-5,65,3,3,3.0,-2,-44
CCN1CCN(C(=O)C2CC(c3ccc(F)cc3)=NO2)CC1 (configuration not stated),-11,5.5,4,5,1.8,1,-9
CCN(CC)CCOCCOc1ccc(Cl)c2ccccc12,0,0.1,15,7,5.9,0,8
Cc1cccc(N(CC(=O)N2CCOCC2)S(C)(=O)=O)c1,12,0.1,-1,10&3,0.0,-1,-15
CCOc1ccc(N2C(=O)C3ON(c4ccccc4)C(c4ccco4)C3C2=O)cc1 (configuration not stated),26,0.2,-3,3,-0.1,1,38
CC(C)(C)OC(=O)CNC(=O)c1[nH]cnc1C(=O)Nc1ccc(Cl)cc1,-11,1.0,-5,11,0.5,/,100*
CC(C)(C)C(=O)O/N=C1\CCS(=O)(=O)c2sccc21,-9,0.6,7,4,-0.1,0,4
CSc1nc(-c2ccco2)nn1C(=O)CCc1ccccc1,12,0.4,8,7,0.2,-3,37
CC(C)CC(CC(C)C)=NNC(=O)c1ccc(CSc2nncn2C)cc1,-4,1.4,1,11,1.8,1,-23
COc1ccc(N=C2CCS(=O)(=O)c3sccc32)cc1,9,1.3,6,7,-0.2,-5,-26
O=C(CSC1=NCCS1)Nc1nc2c(s1)CCCC2,3,0.0,7,3,3.6,0,14
CCN1CCN(C(=O)/C=C/c2ccc(C)o2)CC1,-5,-0.1,-42,3,0.3,-2,-12
C=CCNC(=O)NC(=O)CSc1nnc(C(F)(F)F)n1C,3,1.6,-2,4,0.5,-1,9
CCN1CCN(C(=O)/C=C/c2c(F)cccc2Cl)CC1,9,0.2,3,6,2.1,-2,24
CSc1nc(-c2ccco2)nn1C(=O)c1ccccc1,28,0.0,-2,-6,-2.7,2,18
COc1ccc2cc3cc(C(=O)NCCN4CCc5ccccc5C4)sc3nc2c1,-11,2.0,-10,10,2.2,-2,33
CN(C)S(=O)(=O)NCc1ccc2c(c1)OCO2,9,-0.3,1,10,0.2,-2,-17

# Arranged by molecular weight (low to high): 3 of the compounds above
SMILES,PPC-1+TRAIL kill,zVAD death inh,TbHK1 inh,EP2 antag,TNF necrop inh,Wee1 stabilizer,CHOP inh
CCN1CCN(C(=O)/C=C/c2ccc(C)o2)CC1,-5,-0.1,-42,3,0.3,-2,-12
CN(C)S(=O)(=O)NCc1ccc2c(c1)OCO2,9,-0.3,1,10,0.2,-2,-17
CC(C)(C)C(=O)O/N=C1\CCS(=O)(=O)c2sccc21,-9,0.6,7,4,-0.1,0,4

# (cont.)
SMILES,PPC-1+TRAIL kill,zVAD death inh,TbHK1 inh,EP2 antag,TNF necrop inh,Wee1 stabilizer,CHOP inh
O=C1C2C(C(=O)N1CCN1CCN(Cc3ccc([N+](=O)[O-])cc3)CC1)[C@H]1C=C[C@@H]2C1 (some centres not stated),-11,0.5,4,6,-1.3,-2,-2
Cc1ccnc(SCC(=O)N2CCc3ccccc3C2)n1,0,-0.5,-8,3,0.3,0,9
CCOC(=O)c1sc(Nc2nc3c(OC)cccc3s2)cc1C,-9,1.1,-27,11,1.2,2,44
COc1ccc(C2=NOC(C(=O)Nc3cc(C)nn3-c3ccccc3)C2)cc1OC (configuration not stated),18,68,0,10,2.2,2,10
Cc1ccsc1/C=N/n1c(COc2ccccc2)n[nH]c1=S,16,1.2,-7,3,0.4,-3,14
O=C(NCc1ccco1)c1cc2nc(-c3cccs3)cc(C(F)(F)F)n2n1,-11,0.3,6,6,-13,0,-33
CCN1CCN(c2nc3c(c(=O)n(C)c(=O)n3C)n2CCSc2nccc(C)n2)CC1,-4,0.1,-5,2,-1.1,-3,27
Cc1ccc(-c2nn(-c3ccccc3)c3[nH]c(=O)c(CNCc4ccccc4)cc23)cc1,12,0.4,-4,6,-1.9,-1,34
Cc1ccc(NC(=O)C2CCCO2)cc1[N+](=O)[O-] (configuration not stated),-1,0.2,-9,15,-1.1,0,16
Cc1cccc(N2CCN(C(=O)/C=C/c3cccs3)CC2C)c1 (configuration not stated),-6,0.8,-7,5,-0.2,-3,-8
COc1ccc(S(=O)(=O)n2nc(OC(C)=O)cc2N)cc1,10,0.0,1,1,0.5,4,34
CCC(=O)N(CCC(c1ccc(C)cc1)c1ccco1)Cc1ccco1 (configuration not stated),6,-1.1,-1,3,-4.1,0,-25
COC(=O)COc1cccc(NC(=O)COc2ccccc2)c1,0,0.3,-4,11,-1.9,-3,40
CCNC(=O)CC1C(=O)N(c2ccc(C)cc2)C(=O)N1CCc1sccc1C (configuration not stated),38,0.6,-7,7,-1.1,-1,8
COc1ccc(C(=O)Oc2cc(OC)cc(OC)c2C(C)=O)cc1,21,1.6,-1,16,1.7,-3,19
C=CCc1ccc(OCCCCOc2ccc(C(=O)O)cc2)c(OC)c1,19,18,-2,4,-0.8,0,-18
Cc1cccc(N2CCN(C(=O)c3ccncc3)CC2C)c1 (configuration not stated),3,-0.2,3,2,-2.0,-1,-4
Cc1c(Cc2ccccc2)sc(NC(=O)c2ccco2)c1C(N)=O,6,0.0,-18,8,2.3,3,5
COc1cccc(NC(=O)COc2ncnc3sc(C)c(C)c23)c1,-9,0.2,-2,7,1.7,2,28
COc1cc(C(=O)n2nc(C)cc2C)ccc1O,-4,-1.1,-19,11,-2.8,-1,16
CCNC(=O)CC1C(=O)N(c2ccccc2)C(=O)N1CCC(C)C (configuration not stated),5,0.7,-1,11,0.5,-3,13
COc1ccc(NC(=O)C2(c3ccc(NC(=O)c4ccc(OC)c(OC)c4)cc3)CCCC2)cc1,-13,0.1,-11,7,-0.2,1,58
COc1ccc2cc(C#N)c(N3CCN(Cc4nnnn4CCC(C)C)CC3)nc2c1,-11,0.3,-4,15,-1.9,-1,17
COc1cc(OC)c(OC)cc1/C=N/n1c(C)nnc1C,0,1.4,-39,4,-0.8,-2,-2
CC(C)=CCCC(C)CN1CCC(N2CCC(C(=O)N3CCCC3)CC2)CC1 (configuration not stated),13,-1.1,-10,3,-0.6,-2,22
CCOC(=O)COc1ccc2c(C)cc(=O)oc2c1C(=O)c1ccccc1,17,-1.4,-9,3,0.4,-2,17
CCC(CC)c1nc2cc(OC)c(OC)cc2c(=O)o1,15,3.9,3,9,0.3,1,-16
CSC1=N/C(=C\c2ccccc2Cl)C(=O)N1N(C)C,5,0.7,-22,3,-0.1,4,7
N#CC1=C(N)OC2=C(C(=O)CCC2)[C@]12C(=O)N(CC(N)=O)c1ccccc12,17,-0.2,32,12,1.8,1,5
CCOc1ccc(OCC(=O)Nc2ccccc2C(F)(F)F)cc1,3,1.8,6,6,0.9,-1,11
O=C(c1cc(Br)ccc1Cl)N1CCCC1,9,1.9,2,13,0.4,-1,10
N#CC1(c2ccc(NC(=O)c3ccccc3)cc2)CCCC1,34,0.2,-5,9,-1.9,-2,-7
CCOc1ccc(N2C(=O)/C(=C/c3ccc(C)o3)N(C)C2=S)cc1,4,0.8,22,7,0.4,-3,12
COc1ccc(C2NC(c3ccc(OC)cc3OC)C(C)C(=O)C2C)c(OC)c1 (configuration not stated),23,2.4,-6,0,0.4,-2,9
CCC(=O)n1nc(-c2cccnc2)nc1NCc1ccccc1,-25,79*,-2,4,2.4,0,13
COC(=O)NNC(=O)c1ccc(C(C)(C)C)cc1,18,1.2,6,10,1.2,0,45
O=C(CNS(=O)(=O)c1ccccc1)OCC(=O)c1ccc(OC(=O)c2ccccc2)cc1,-8,0.0,-10,8,-15,-2,7
O=C(CCc1ccc(S(=O)(=O)NC2CCCCC2)cc1)NCc1ccccc1,9,-0.7,-3,15,-0.3,1,15
CC(C)c1nnc(NC(=O)CCC(=O)NCc2cccs2)s1,4,0.0,-6,4,0.6,-2,-22
CCCCCn1c(=NC(C)=O)c(C#N)cc2c(=O)n3ccccc3nc21,-1,-0.6,1,/,-5.7,1,-12
Cn1cnnc1SCc1ccc(C(=O)NN)cc1,-10,0.5,3,1,0.0,1,2
COc1ccc(-c2nc(SC)n(S(=O)(=O)c3ccccc3)n2)cc1,20,-0.2,0,17,-0.4,1,38
COc1ccc(S(=O)(=O)N(CCN2CCOCC2)Cc2cc(OC)ccc2OC)cc1,20,-0.3,-6,25,-1.3,2,11
Cc1cccc(C(=O)n2cnnc2N)c1,6,-0.2,4,5,-2.1,-2,22
CCc1nc(-c2cc3ccc(C)cc3[nH]c2=O)no1,16,0.1,-5,20,0.0,0,-31

# 7 entries from above, with tabs:
compound	PPC-1+TRAIL kill	zVAD death inh	TbHK1 inh	EP2 antag	TNF necrop inh	Wee1 stabilizer	CHOP inh
CC(C)c1nnc(NC(=O)CCC(=O)NCc2cccs2)s1	4	0.0	-6	4	0.6	-2	-22
CCCCCn1c(=NC(C)=O)c(C#N)cc2c(=O)n3ccccc3nc21	-1	-0.6	1	/	-5.7	1	-12
Cn1cnnc1SCc1ccc(C(=O)NN)cc1	-10	0.5	3	1	0.0	1	2
COc1ccc(-c2nc(SC)n(S(=O)(=O)c3ccccc3)n2)cc1	20	-0.2	0	17	-0.4	1	38
COc1ccc(S(=O)(=O)N(CCN2CCOCC2)Cc2cc(OC)ccc2OC)cc1	20	-0.3	-6	25	-1.3	2	11
Cc1cccc(C(=O)n2cnnc2N)c1	6	-0.2	4	5	-2.1	-2	22
CCc1nc(-c2cc3ccc(C)cc3[nH]c2=O)no1	16	0.1	-5	20	0.0	0	-31

# Part of the list above, reduced to CHOP inh, Wee1 stabilizer and PPC-1+TRAIL kill:
structure,CHOP inh,Wee1 stabilizer,PPC-1+TRAIL kill
COc1ccc(-c2nc(SC)n(S(=O)(=O)c3ccccc3)n2)cc1,38,1,20
COc1ccc(S(=O)(=O)N(CCN2CCOCC2)Cc2cc(OC)ccc2OC)cc1,11,2,20
Cc1cccc(C(=O)n2cnnc2N)c1,22,-2,6

# Only part of the results is shown; rates above refer to the full screens.
